PINK1 expr mod – changes PINK1 expression; PINK1 immunofluorescence, high-content cytometry, 24 h; Potency, µM (doses to about 76.6 µM), for inactives: at the top dose activation (PINK1 increase), most hits filed as activators; actives 0.2% (n = 410,000); active = well fitted activation curve with a large enough effect; inconclusive = small, poorly fitted or top-dose-only effect; inactive = flat fitted curve, though single readings scatter; cell line not stated here;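 note: potency is the fitted concentration of half-maximal effect; % of control where 0% means no effect; nearly all actives have a fitted effect of over 65% in size; a mitochondrial uncoupler was the plate control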
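Fluorescence from anti-PINK1 antibody, together with nuclear and cell stains, was scanned on a laser-scanning cytometer. Before staining, stable-line cells were incubated 24 hours with compounds at 5 concentrations; primary antibody 12 h at 10 degrees C.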
Six1-Eya2 inh – Six1/Eya2 interaction inhibition; AlphaScreen GST-Six1/His-Eya2 binding, biochemical; active compounds read low; control for the full effect not named in the record; Q15475+O00167; AID 651725; activity change, % (concentration not given with the values); actives 0.56% (n = 360,000); in the data active = activity change below about -65%; inconclusive = about -30% to -65%; inactive = above about -30%; note: % is set by controls: 0 for no effect and ±100 for the full control effect
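Six1/Eya2 binding was read as AlphaScreen signal after compounds were pinned into GST-Six1 plus His-tagged Eya2 (5X stock 250/500 nM) in pH 8.0 Tris/NaCl/TCEP buffer, beads added, then incubated 1 h, 37 C, dark.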
D2 ag – human D2 receptor agonism in beta-arrestin assay | P14416 | DiscoveRx PathHunter D2 beta-arrestin, luminescence, 90 min; 100% = 57 uM dopamine signal | activation, % (concentration not given with the values) | actives 0.084% (n = 360,000); in the data active = activation above about 40%; inconclusive = about 15% to 40%; inactive = below about 15%; note: compound concentration not given in the record; the text of the record calls up to 30% inactive
Target sequence (P14416 whole entry, looked up): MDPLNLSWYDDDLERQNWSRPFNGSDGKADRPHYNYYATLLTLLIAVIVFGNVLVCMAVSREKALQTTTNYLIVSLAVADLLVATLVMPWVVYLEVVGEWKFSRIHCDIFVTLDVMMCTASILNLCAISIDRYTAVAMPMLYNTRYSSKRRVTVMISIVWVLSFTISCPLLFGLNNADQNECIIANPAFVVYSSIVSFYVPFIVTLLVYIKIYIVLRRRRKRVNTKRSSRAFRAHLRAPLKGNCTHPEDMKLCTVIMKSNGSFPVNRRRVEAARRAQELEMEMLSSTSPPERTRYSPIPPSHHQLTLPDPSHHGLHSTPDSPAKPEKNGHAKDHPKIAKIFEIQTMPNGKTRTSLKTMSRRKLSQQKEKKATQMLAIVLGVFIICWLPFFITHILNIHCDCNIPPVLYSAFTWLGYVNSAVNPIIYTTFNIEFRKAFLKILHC
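DiscoveRx PathHunter D2 beta-arrestin cells (2,100/well) attached overnight, then compound-stimulated 90 min at 37 C in HBSS/10 mM HEPES/0.1% Tween-20 buffer; beta-galactosidase complementation read by luminescence after 1 h at ambient temperature. Dopamine 57 uM final (EC100) as control.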
TRPML1 ag – agonists of human TRPML1 channel; TRPML1-expressing cells, Ca2+ dye fluorescence, FDSS; host cell line not named in the record; reference of the full effect not given here; actives 0.12% (n = 410,000); activation, % (concentration not given with the values); AID 624414; in the data active = activation above about 50%; inconclusive = about 30% to 50%; inactive = below about 30%; note: 0% is about no effect; the text of the record puts the active cut at 80%
Target sequence (Q9GZU1 whole entry, looked up): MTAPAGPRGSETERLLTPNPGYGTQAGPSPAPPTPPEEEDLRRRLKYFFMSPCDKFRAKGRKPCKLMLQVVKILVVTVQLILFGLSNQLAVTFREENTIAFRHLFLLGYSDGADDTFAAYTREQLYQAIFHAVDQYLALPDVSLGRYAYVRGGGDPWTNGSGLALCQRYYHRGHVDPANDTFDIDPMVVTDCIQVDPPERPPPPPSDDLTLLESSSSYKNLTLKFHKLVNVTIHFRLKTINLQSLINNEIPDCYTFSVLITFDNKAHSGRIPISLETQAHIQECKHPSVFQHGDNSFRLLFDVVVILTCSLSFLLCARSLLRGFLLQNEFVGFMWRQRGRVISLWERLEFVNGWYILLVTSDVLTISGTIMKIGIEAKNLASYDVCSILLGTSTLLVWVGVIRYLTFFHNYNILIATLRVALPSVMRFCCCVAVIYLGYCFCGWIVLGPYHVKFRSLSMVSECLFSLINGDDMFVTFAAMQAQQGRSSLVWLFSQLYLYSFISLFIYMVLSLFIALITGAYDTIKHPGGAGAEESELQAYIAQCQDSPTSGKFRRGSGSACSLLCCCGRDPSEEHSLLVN
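In this qHTS format, compounds were pin-transferred onto Ca8-dye-loaded TRPML1-DL cells induced with Tet overnight, and intracellular Ca2+ fluorescence was recorded kinetically for 110 s after a 10 s baseline. A subsequent 4uM final 54-4 (EC80) addition followed by a second 110 s read served as the antagonist phase.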
TRPML1 inh – inhibitors of human TRPML1 channel; activity change, negative = inhibition, % (concentration not given with the values); actives 0.02% (n = 390,000); Q9GZU1; TRPML1-inducible cells, Ca2+ dye fluorescence, FDSS; active compounds read low; inhibition of EC80 agonist-evoked calcium signal; in the data active means activity change below about -50%; inconclusive means about -30% to -50%; inactive means above about -30%;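 note: stimulus is agonist 54-4 at its EC80 concentration; % is set by controls: 0 for no effect and ±100 for the full control effect; the text of the record puts the active cut at -80%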
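TRPML1-DL cells, Tet-induced overnight (~16 h, 37 °C) at 1,500 cells/well, were loaded with Ca8 no-wash dye plus quencher for 45-90 min at room temperature. Compounds were pinned during FDSS kinetic reading; agonist 54-4 at EC80 (4 uM final) then added.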
D2 PAM – human D2 receptor positive allosteric modulation | P14416 | DiscoveRx D2 beta-arrestin cells, luminescence, 90 min; 100% = 57 uM dopamine signal | potentiation, % (concentration not given with the values) | actives 0.23% (n = 360,000); active = potentiation of 50% or more; inconclusive = 30% to 50%; inactive = 30% or less;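 note: compound concentration not given in the record; tested on top of an EC20 dose of dopamine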
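D2 cells co-treated with compound plus 50 nM dopamine (EC20) for 90 min at 37 deg C to detect potentiation. Beta-arrestin recruitment was read as enzyme-fragment luminescence after 1 h at ambient temperature. Full response was set by 57 uM dopamine.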
* marks the source's active call; other numbers are inactive results; ? = inconclusive; / = not tested or not shown; & = joins results of further samples.

mol	PINK1 expr mod	Six1-Eya2 inh	D2 ag	TRPML1 ag	TRPML1 inh	D2 PAM
O=C(c1ccc2nc[nH]c2c1)N1CCN(c2cccc(Cl)c2)CC1	0.7%	-6.3	-0.8	-0.8	8.0	-5.9
CN(Cc1ccc(Cl)cc1Cl)C(=O)c1cc(=O)c2ccccc2o1	-0.5%	-8.5	-3.5	0.1	3.6	-3.5
OCCC1CN(Cc2cccc(F)c2F)CCN1CCc1ccccc1 (configuration not stated)	0.3%	-2.6	-4.6	-0.1	22.3	-4.4
CC(=O)Nc1ccc(NC(=O)CSc2nc3[nH]ncc3c(=O)n2-c2ccccc2)cc1	-2.0%	-6.6	-4.1	-1.3	4.9	-10.5
CCC(CC)CN1CCC(CN2C(=O)C(=O)NC[C@@H]2CC(C)C)CC1	4.8%	12.4	-5.6	0.6	-0.1	-2.5
C#C[C@]1(O)CC[C@H]2[C@@H]3CCC4=CC(=O)CC[C@@H]4[C@H]3CC[C@@]21C	-0.6%	1.2	-4.8	-0.9	4.4	-5.4
Cc1cc(-c2nnc(CCC(=O)NC(c3ccccc3)c3ccccc3)o2)no1	-1.2%	-0.3	0.0	0.7	-0.9	-10.5
CCC(C(=O)NC(C)c1ccccc1)C(=O)NC(C)c1ccccc1 (configuration not stated)	-0.5%	8.3	1.4	-1.6	-6.3	-3.8
CCNC(=S)N/N=C1\C(=O)c2cccc3cccc1c23	1.2%	-11.5	-3.6	-0.1	10.5	-0.7
CC(NCCC1(Cc2ccccc2Cl)CCOC(C)(C)C1)c1cccs1 (configuration not stated)	7.3%	-3.7	-1.9	1.5	5.6	-8.5
Cc1ccc(C(=O)N2CCN(c3ccc(N4CCOCC4)nn3)CC2)cc1	-7.4%	3.3	-2.0	0.6	5.6	-15.1
O=C(COC(=O)CCSc1ccc(Cl)cc1)Nc1ccc(F)cc1	1.3%	16.4	1.8	4.3	26.0	-2.4
CCCOc1ccc(C2=CSC3=NCCN23)cc1[N+](=O)[O-]	2.4%	3.3	-0.4	1.1	12.8	2.0
CCOc1ccccc1NC(=O)CSC1=Nc2ccccc2C2=NC(CC(=O)NCc3ccc4c(c3)OCO4)C(=O)N12 (configuration not stated)	8.8%	/	/	1.5	-0.5	/
COC(=O)C(C(=O)OC)C1C=CCN(C(C)=O)C1 (configuration not stated)	2.5%	-10.3	-1.5	-0.7	5.0	2.4
O=C(Cn1nc(Cc2cccnc2)c2ccccc2c1=O)N1CCN(c2ccc(F)cc2)CC1	1.6%	/	/	0.1	-24.1	/
CCn1c(O)c(/C=C2\C=NN=C2c2ccc(C)cc2)sc1=S	0.1%	-8.5	-8.0	-0.3	-11.1	-1.4
O=C(NNC1=NCCC1)c1cccc(S(=O)(=O)N2CCOCC2)c1	1.6%	-2.0	-4.4	-0.6	-1.4	-5.0
COCCCNC(=O)/C(C#N)=C/c1c(N2CCN(c3ccc(OC)cc3)CC2)nc2c(C)cccn2c1=O	4.1%	?	3.5	-1.7	3.4	-2.6
COc1cc(OC)cc(C(=O)OC(C)C(=O)NC2CCCc3ccccc32)c1 (configuration not stated)	8.5%	3.0	-5.4	1.3	-8.6	-2.4
COc1cc(/C=N/NC(=O)c2ccncc2)ccc1O	1.9%&1.7%	-9.3&-9.5	-6.9&-5.9	-0.6&-0.9	-4.9&14.4	2.7&1.0
COc1ccc(C)cc1NC(=O)N1CCC(CN2CCC(C)CC2)CC1	-0.4%	/	/	-0.3	16.0	/
CCN(CC)S(=O)(=O)c1ccc(C(=O)NCCSc2c(-c3ccc(OC)cc3)[nH]c3ccccc23)cc1	0.7%	/	/	2.1	-13.1	/
COc1ccc(-c2[nH]ncc2/C=N/NC(=O)c2ccc(Br)cc2)c(OC)c1	1.1%	-12.6	-7.0	-0.7	1.5	-9.6
CCCCN(CC)S(=O)(=O)N1CCC(C(=O)NCCCN2CCOCC2)CC1	0.4%	-2.0	3.7	6.5	32.6	-20.1
Cc1c(C)c2ccc(OCC(=O)Nc3cccnc3)c(C)c2oc1=O	7.0%	-6.3	-0.1	0.8	-9.2	-7.2
Cc1ccc(OC(=O)c2ccncc2)c(C)c1	0.1%	2.4	1.9	0.3	16.0	-0.8
CCOC(=O)c1ccc(NC(=O)c2cn(-c3ccccc3)nc2-c2ccc(Br)cc2)cc1	1.6%	/	/	-0.4	-13.6	/
CCn1c(Cc2ccc(OC)cc2)nnc1SCC(=O)NC1CC1	-1.1%	6.3	-3.3	-0.4	5.8	-5.7
CCOc1ccc(N2CC(C(=O)NCCN3C(=O)S/C(=C\c4ccc(OC)c(OC)c4)C3=O)CC2=O)cc1 (configuration not stated)	1.8%	3.0	-2.0	0.0	6.2	-0.3
O=C(COc1cccnc1[N+](=O)[O-])NC1CCS(=O)(=O)C1 (configuration not stated)	1.7%	2.0	-0.8	0.4	17.5	-20.1
CN1C(=O)C(O)(C2COC(C)(C)CC2=O)c2ccccc21 (configuration not stated)	5.1%	3.6	2.6	0.9	-6.4	-14.9
Cc1cc2c(C)c(C)c(=O)[nH]c2cc1N	3.0%	-4.2	-1.0	1.2	-0.2	-2.6
CCCCOc1ccc(C(=O)N/C(=C/C=C/c2ccccc2)C(=O)N2CCOCC2)cc1	1.4%	-8.2	-0.5	-0.5	6.7	-3.4
CC1(C)CC(=O)C=C(c2ccc(CO)cc2)C1=O	0.5%	4.9	-9.9	-0.5	-7.2	-0.1
CCOC(=O)C1CCCN(C(=O)c2ccc3c(c2)sc2nc(-c4ccc(CC)cc4)cn23)C1 (configuration not stated)	0.2%	/	/	1.2	3.7	/
COc1ccc(Br)cc1CN(C)CC(=O)Nc1cc(Cl)cc(Cl)c1	?	4.8	2.7	0.8	9.3	-15.2
COc1ccc(C2CC(c3cccc(F)c3)=NN2c2ccc(S(N)(=O)=O)cc2)cc1 (configuration not stated)	-1.3%	36.7	1.0	-0.3	35.9	10.3
N#CCCN(Cc1cccs1)C(=O)c1ccc(Cl)cc1	-1.1%	-6.5	-11.5	0.2	-0.2	-5.2
Cc1cc(=O)oc2ccc(OC(=O)CN3C(=O)c4cccc([N+](=O)[O-])c4C3=O)cc12	1.2%	1.2	1.1	0.5	-4.0	-5.5
Cc1cccc(OCCn2c(=O)oc3ccc(C)cc32)c1	0.0%	17.2	2.2	3.0	-5.4	-18.5
S=c1[nH]ccn1-c1ccccc1Cl	4.6%	1.5	-1.4	0.7	12.9	-1.2
O=C(Nc1ccc(Cl)cc1)c1cc(Br)ccc1OCC(=O)N1CCOCC1	14.3%	6.0	-0.9	1.9	10.9	0.5
CCC(=O)Nn1cnc2c(c1=O)C1(CCCCC1)Cc1ccccc1-2	0.1%	-0.2	-2.2	1.0	19.2	-18.4
CCn1c2ccccc2c2nnc(SCC(=O)Nc3ncccn3)nc21	-1.6%	-0.1	-4.7	-1.5	0.7	-9.0
COc1cc2ccc(CC(N)=O)cc2cc1OC	-0.3%	1.0	8.1	-0.4	-3.0	-5.4
COc1ccc(F)cc1CN1CCN(c2ncnc3scc(-c4ccccc4)c23)CC1	5.3%	2.1	-1.1	-0.3	9.5	-7.1
COc1ccc(NC2=CC(c3ccc(F)cc3)N(c3ccc(OC)cc3)C2=O)cc1 (configuration not stated)	29.3%	-10.1	-2.4	0.7	-4.6	-9.5
COc1ccc(CCNC(=O)c2ccccc2NC(=O)c2ccco2)cc1OC	-1.0%	-7.3	-2.6	2.0	16.3	-0.1
CC1CC(C)CN(C(=O)C2CCN(C(=O)Nc3ccccc3)CC2)C1 (configuration not stated)	-1.6%	10.1	2.4	-0.3	4.5	5.8

The list goes on:
mol	PINK1 expr mod	Six1-Eya2 inh	D2 ag	TRPML1 ag	TRPML1 inh	D2 PAM
Cc1c(NC(=O)CSc2ccc(Cl)cc2)c(=O)n(-c2ccccc2)n1C	-1.9%	-0.8	3.0	0.0	26.6	-9.2
CCn1cc(S(=O)(=O)c2ccc(C)cc2)c(=O)c2cc(F)c(N3CCN(C)CC3)cc21	0.3%	-1.2	-2.6	-0.5	4.7	-17.3
O=C(NNC(=O)c1cccc(C(F)(F)F)c1)c1ccc(-n2cnnn2)cc1	2.5%	3.3	-0.9	0.0	-7.7	-0.4
O=C(C1=NN[C@@H]2C(=O)N(c3cccc(C(F)(F)F)c3)C(=O)[C@H]12)c1cnccn1	-1.2%	7.4	-5.1	-0.2	4.8	-8.3
Oc1c(Br)cc(Br)cc1CNc1ccccn1	5.7%	-5.4	-1.4	-0.1	-2.3	-8.2
O=C(CN(c1ccc(Cl)cc1)S(=O)(=O)c1ccccc1)N/N=C/c1ccco1	-1.1%	-17.3	-3.9	-1.2	9.2	-10.6
CCC(=O)OCc1c(C(F)(F)F)nn(C)c1Sc1ccc(Cl)cc1	/	105.5	-0.6	1.2	11.8	-10.5
CC(C)C(NC(=O)OCc1ccccc1)C(=O)O (configuration not stated)	-0.4%	-1.8	-3.4	-0.2	-7.9	-27.8

Record cards, as listed above. Order of values: PINK1 expr mod | Six1-Eya2 inh | D2 ag | TRPML1 ag | TRPML1 inh | D2 PAM
CCC(CC)CN1CCC(CN2C(=O)C(=O)NC[C@@H]2CC(C)C)CC1 is entered as 4.8% | 12.4 | -5.6 | 0.6 | -0.1 | -2.5
COc1ccc(C)cc1NC(=O)N1CCC(CN2CCC(C)CC2)CC1 is entered as -0.4% | / | / | -0.3 | 16.0 | /
CC(C)C(NC(=O)OCc1ccccc1)C(=O)O (configuration not stated) is entered as -0.4% | -1.8 | -3.4 | -0.2 | -7.9 | -27.8

Quoted from the listing.
D2 ag result of Cc1c(NC(=O)CSc2ccc(Cl)cc2)c(=O)n(-c2ccccc2)n1C is entered as 3.0
Six1-Eya2 inh result of CCn1cc(S(=O)(=O)c2ccc(C)cc2)c(=O)c2cc(F)c(N3CCN(C)CC3)cc21 is entered as -1.2

High-throughput results from PubChem BioAssay.
